Assay outcomes from PubChem.
BmaI1 = BmaI1 acyl-homoserine lactone synthase inhibition – biochemical, fluorescence intensity, with counterscreen (AID 720554). inhibition, %. 12,000 tested, 0.4% active. BmaI1 enzyme assay, fluorescence intensity; stronger effect = higher value; test concentration not given here; a few actives read low; strong numbers were not always called active;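 active = both replicates within 2 robust z-scores of the inhibited control and a quiet counterscreen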;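 note: 0% = uninhibited enzyme and 100% = inhibited control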
BmaI1 counterscreen = second read-out of BmaI1, no call of its own (marks repeat the call); inhibition, %; measured here: counterscreen; design of the counterscreen not given here;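 first of two replicates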
* hit, by the source's call. The list is partial (hit frequency here may not be typical).

Fields: BmaI1	BmaI1 counterscreen
CC(CCc1ccccc1)NC(=O)COc1ccc(-n2cnnn2)cc1 (configuration not stated)
    12	8
Cc1cc2nc(NCC3COc4ccccc4O3)c3ccccc3n2n1 (configuration not stated)
    20	12
Cc1cc(/C=C/C(=O)N(C)CC2COc3ccccc3O2)c(C)n1Cc1ccco1 (configuration not stated)
    22	4
CN(C)C1(CNC(=O)COc2ccc3oc4c(c3c2)CCCC4)CCCCC1
    2	0
O=C1CN(C(=O)CSc2nnc(-c3ccccc3)n2-c2ccccc2)c2ccccc2N1
    4	3
CC(C)(O)c1ccccc1CC[C@@H](SCC1(CC(=O)O)CC1)c1cccc(/C=C/c2ccc3ccc(Cl)cc3n2)c1
    1	4
NCCCCOc1ccc(F)cc1
    1	8
CC(=O)OCC(=O)NCc1ccccc1Cl
    10	2
CC(/C=N/N1CCOCC1)=C\c1ccccc1
    5	2
O=C1CN(CC(=O)Nc2ccc(C(F)(F)F)cc2)CCN1
    -14	-9
CC(=O)N1CCN(C(=O)c2ccccc2CSc2nc(C)cs2)CC1
    2	2

5 consecutive entries out of the list so far, quoted:
Fields: BmaI1	BmaI1 counterscreen
NCCCCOc1ccc(F)cc1
    1	8
CC(=O)OCC(=O)NCc1ccccc1Cl
    10	2
CC(/C=N/N1CCOCC1)=C\c1ccccc1
    5	2
O=C1CN(CC(=O)Nc2ccc(C(F)(F)F)cc2)CCN1
    -14	-9
CC(=O)N1CCN(C(=O)c2ccccc2CSc2nc(C)cs2)CC1
    2	2
